High-throughput results: PubChem BioAssay, National Center for Advancing Translational Sciences (NCATS)
GLA inh pH 4.5 = qHTS Assay for Inhibitors of Human alpha-Galactosidase at pH 4.5; 230,000 tested, under 10 active; Alpha-galactosidase A (Homo sapiens), P06280; purified enzyme, 4-MU-alpha-Gal fluorescence, pH 4.5; activity change, negative = inhibition, % at 105 µM; AID 1467, 2008; inconclusive = small, poorly fitted or top-dose-only inhibition, or a rising curve; inactive = flat fitted curve, though single readings scatter; no compound was filed as active;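 note: 0% = full activity with enzyme and -100% = basal without enzyme; dose as in the result columns while the protocol names 77 µM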
Rango release inh = qHTS Assay for Inhibitors of RanGTP induced Rango (Ran-regulated importin-beta cargo) - Importin beta complex dissociation; Biochemical FRET Rango-importin beta, RanGTP-induced dissociation; Potency, µM (top dose mostly 46.1 µM), inactives show at the top dose activity change, negative = inhibition; 340,000 tested, 0.071% active; AID 540253, 2011; active means falling FRET ratio curve, often poorly fitted, with flat reads before Ran was added; inconclusive means other falling curves, or compound fluorescence or quenching; inactive means flat or rising ratio curve;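 note: potency is the fitted concentration of half-maximal effect; % of control where 0% means no effect; nearly all actives have a fitted effect of over 45% in size; -100% = wells without RanGTP and RCC1; the record marks most hits as doubtful in a second field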
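Two FRET readings bracket the reaction: one 5 min after compound meets Rango–importin beta, another 45 min after RanGTP-RCC1 (0.6 uM Ran, 0.2 uM RCC1, 2 mM GTP) is added. Only the second defines inhibition.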
miR-21 FLuc = qHTS Assay for Modulators of miRNAs and/orActivators of miR-21; Potency, µM (top dose mostly 38.3 µM), for inactives: at the top dose reporter change, positive = more light; HeLa miR-21 FLuc reporter, luciferase, 48 h; 340,000 tested, under 10 active; active = well fitted rising curve with a large enough effect; inconclusive = small, poorly fitted or top-dose-only effect; inactive = no such curve, though single readings can be large or run the other way;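 note: % of control where 0% means no effect; miR-21 action dims this reporter so a rising signal means less miR-21 action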
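HeLa cells endogenously expressing miR-21, stably carrying CMV-driven firefly luciferase with a downstream miR-21 binding site, 2000 cells/well. Titrations up to approximately 40 uM, 48 hours; luciferase luminescence read.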
Rango-impB inh = qHTS Assay for Inhibitors of Rango (Ran-regulated importin-beta cargo) - Importin beta complex formation; Rango CFP/YFP FRET sensor + importin beta, 45 min; Importin subunit beta-1 (Homo sapiens), Q14974; 340,000 tested, 0.031% active; Potency, µM (top dose mostly 92.2 µM), without a hit: at the highest dose inhibition of complex formation; active = rising FRET ratio curve, often small or poorly fitted; inconclusive = mostly compound fluorescence or quenching in the first reads; inactive = flat curves in all reads;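 note: potency is the fitted concentration of half-maximal effect; 0% = DMSO wells and 100% = buffer wells lacking importin beta; nearly all actives have a fitted effect of over 15% in size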
Target sequence (Q14974 whole entry, looked up): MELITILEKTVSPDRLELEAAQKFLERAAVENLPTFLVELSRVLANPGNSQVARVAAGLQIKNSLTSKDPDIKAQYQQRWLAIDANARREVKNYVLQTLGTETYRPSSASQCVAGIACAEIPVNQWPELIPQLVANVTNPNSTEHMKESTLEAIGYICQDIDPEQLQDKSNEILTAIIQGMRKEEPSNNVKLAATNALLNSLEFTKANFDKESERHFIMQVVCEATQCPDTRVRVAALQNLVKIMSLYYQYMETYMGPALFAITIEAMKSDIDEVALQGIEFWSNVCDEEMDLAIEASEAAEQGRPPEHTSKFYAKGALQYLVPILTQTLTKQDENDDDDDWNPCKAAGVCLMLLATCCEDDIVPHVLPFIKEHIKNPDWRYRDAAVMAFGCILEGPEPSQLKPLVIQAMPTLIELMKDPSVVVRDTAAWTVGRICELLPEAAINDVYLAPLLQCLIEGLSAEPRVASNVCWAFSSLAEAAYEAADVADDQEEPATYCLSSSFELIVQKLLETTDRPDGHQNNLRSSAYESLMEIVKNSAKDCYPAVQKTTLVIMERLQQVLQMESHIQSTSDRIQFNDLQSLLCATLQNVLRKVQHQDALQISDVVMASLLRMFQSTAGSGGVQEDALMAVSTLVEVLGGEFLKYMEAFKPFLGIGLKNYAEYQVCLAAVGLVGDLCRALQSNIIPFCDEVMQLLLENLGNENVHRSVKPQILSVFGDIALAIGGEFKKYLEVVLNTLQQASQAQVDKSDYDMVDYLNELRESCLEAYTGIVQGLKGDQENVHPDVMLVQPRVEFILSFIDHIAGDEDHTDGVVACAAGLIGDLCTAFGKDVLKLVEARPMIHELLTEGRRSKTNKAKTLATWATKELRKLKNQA
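FRET biosensor (snurportin 1 IBB flanked by EYFP and cerulean), 50 nM, with compound 5 min, then 0.125 microM importin beta in PBS, 1 mM DTT, 0.02% Tween-20, 0.1% BSA. CFP/YFP ratio read after 45 min at room temperature; pre-read flags interference.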
The depositor's hits bear a star; ? = inconclusive; / = not tested or not shown; & = joins results of further samples.

GLA inh pH 4.5 | Rango release inh | miR-21 FLuc | Rango-impB inh | SMILES
-14 | -18% | -5% | 1.8% | Cc1ccc(C(=O)NNC(=O)C2CCCN(c3ncccn3)C2)cc1 (stereo not given)
-22 | 25% | / | -3.5% | COc1ccc(-c2c(C)cc3oc(=O)cc(-c4ccccc4)c3c2C)cc1OC
2 | 21% | -4% | -0.8% | CC(C)c1ccccc1NC(=O)COC(=O)Cc1ccsc1
6 | -7% | 1% | 4.6% | O=C(O)CSCc1cn2cc(Cl)ccc2n1
4 | 0% | -6% | 2.4% | Cc1ccc(-c2cc(C(=O)OCC(=O)Nc3ncc(C(F)(F)F)cc3Cl)c3ccccc3n2)cc1
2 | 8% | 4% | -2.5% | CCOc1ccccc1NC(=O)CSc1nnc(Cn2c(=O)sc3ccccc32)n1C
8 | -4% | -54% | 0.1% | O=C(Cc1ccccc1)c1ccc2c(c1)OCCO2
-1 | ? | -3% | 2.7% | O=c1cc(-c2ccc([N+](=O)[O-])cc2)c2ccc(O)cc2o1
/ | -5% | -4% | -1.4% | COC(=O)c1ccc(CS(=O)(=O)c2ccc(C)cc2)o1
5 | 0% | -4% | 3.2% | CCOc1cc(S(=O)(=O)N(Cc2ccccc2)Cc2ccccc2)c(OCC)cc1-n1cnnn1
9 | 37% | -2% | -3.8% | OC(COc1ccc(CN2CCSCC2)cc1)CN1CCCCC1 (stereo not given)
/ | -5% | -5% | -3.8% | Cc1ccc(C(=O)Nc2ccc3c(c2)C(=O)N(C)C3=O)c(C)c1
-5 | 26% | -14% | 4.7% | COC(=O)CC1Oc2ccc(C)cc2NC1=O (stereo not given)
/ | 0% | / | -5.2% | Cn1nccc1C(=O)Nc1cc(Cl)ccc1Cl
2 | -14% | 0% | -0.4% | COc1cccc(N2CCN(S(=O)(=O)c3ccc4nc(-c5ccccc5)[nH]c4c3)CC2)c1
12 | 2% | 1% | -1.8% | CC(C)Oc1ccccc1C(=O)NC(CO)C(=O)O (stereo not given)
/ | 1% | / | -2.7% | CCOC(=O)[C@H]1[C@H]2COc3ccccc3[C@@H]2N2C(=O)c3cc(OC)ccc3NC(=O)[C@@]12C
7 | 7% | -8% | -2.8% | Oc1cc2ccccc2cc1-c1n[nH]c(=S)n1Cc1ccco1
0 | 2% | -14% | -1.4% | C/C(Cc1ccccc1)=N\NC(=O)c1cc(C(C)(C)C)[nH]n1
0 | 14% | 2% | 1.2% | S=C(NC1CCCCC1)N1CCc2[nH]c3ccccc3c2C1
/ | ? | ? | -1.9% | COc1ccccc1N1CCN(C(=O)c2ccc3c(c2)CCN3S(=O)(=O)c2ccccc2)CC1
-3 | -14% | -10% | ? | CCOC(=O)c1[nH]c2ccccc2c1NC(=O)c1ccc(S(=O)(=O)N2CCCCC2)cc1
/ | -14% | 0% | -3.1% | COc1ccc(C)cc1N(CC(=O)N1CCOCC1)S(C)(=O)=O
-11 | -22% | 10% | ? | Oc1ccc2oc3c(c2c1C=NCc1ccncc1)CCCC3
/ | -12% | -9% | -1.0% | CCOc1ccccc1NC(=O)CSc1nc2cc(O)ccc2c(=O)n1-c1ccc(OC)c(OC)c1
/ | ? | -1% | ? | O=C(NCC1CCCO1)c1nn2c(C(F)(F)F)cc(-c3ccc(Br)o3)nc2c1Br (stereo not given)
6 | 1% | -12% | ? | COc1ccc(C(C)=O)cc1COC(=O)c1cccc(N(C)C)c1
-5 | 7% | -3% | ? | CCOC(=O)c1c(C)[nH]c(C)c1C(=O)CSc1nnc(-c2ccncc2)n1C
1 | 11% | 1% | 0.6% | Cn1c(Cn2nnc3ccccc32)nnc1SCC(=O)N1CCc2ccccc21
/ | 4% | -1% | -1.0% | O=C(NCc1cccc(Cl)c1)C1CCC(=O)N(CCN2CCOCC2)C1 (stereo not given)
-9 | -16% | 0% | -1.1% | Cc1ccc(NC(=O)C2(NC(=O)c3ccccn3)CCCCC2)cc1Br
1 | 0% | -1% | -1.5% | Cc1cc(NC(=O)COC(=O)C2CCN(S(=O)(=O)c3cccc(Cl)c3Cl)CC2)no1
-12 | 2% | -3% | 3.5% | CCOc1ccc(NCC(=O)Nc2ccc(C)cc2C)cc1
-2 | -2% | -17% | ? | COc1ccc(N=C2NC(=O)/C(=C/c3ccco3)S2)cc1
5 | 0% | -6% | -1.0% | COc1ccc2oc(C(F)(F)C(F)F)cc(=O)c2c1
-4 | 9% | -1% | -1.8% | Cc1ccc(CC(=O)N2CCN(c3cccc(C(F)(F)F)c3)CC2)cc1
/ | -4% | -13% | 0.7% | CCOc1cccc(CN(C)CC2CCCN(CCc3ccc(Cl)cc3)C2)c1O (stereo not given)
-2 | -14% | 0% | 2.8% | NC(=O)c1ccc(N2CCCCC2)c(N2C(=O)CCC2=O)c1
/ | -12% | / | 2.0% | CC(C)(C)OC(=O)NCCCCCc1cn([C@@H](CO)C(=O)NCCCCCCCCCCC(=O)N2CCN(C(=O)OC(C)(C)C)CC2)nn1
0 | 27% | 20%&20% | -1.6% | CCOC(=O)c1cnc2ccccc2c1NCCc1ccc(OC)c(OC)c1
/ | 10% | / | -3.5% | CC1CC1C(=O)N(CCC1=CCCCC1)c1c(N)n(Cc2ccccc2)c(=O)[nH]c1=O (stereo not given)
/ | 21% | / | 6.0% | COc1cccc(CNC(=O)CC(NC(=O)c2ccccc2)c2ccccc2)c1 (stereo not given)
3 | ? | -9% | ? | COc1cc(-c2nc3cnccn3c2Nc2ccccc2)ccc1O
/ | 23% | / | -0.6% | COc1ccc2oc(-c3ccncc3)cc(=O)c2c1
/ | -2% | / | 4.2% | COc1ccccc1NC(=O)COC(=O)c1c(C)nn(-c2ccccc2)c1C
-13 | -14% | ? | 4.7% | O=C(c1ccc(COc2ccc(Br)cc2)o1)N1N=C(C(F)F)CC1(O)C(F)F (stereo not given)
5 | -9% | 1% | -0.8% | O=C(Nc1ccc(N2C(=O)CCC2=O)cc1Cl)c1cccs1
-5 | 0% | -5% | -2.4% | O=C(NCC1CCCO1)C(c1cccnc1)N(C(=O)Cc1cccs1)c1cccnc1 (stereo not given)
4 | 9% | -1% | 0.0% | COC(=O)c1ccc(NC(=O)c2ccccc2N(C)S(=O)(=O)c2ccccc2)cc1
4 | 5% | -6% | 0.8% | CC1=C(C)/C(=N\OC(=O)/C=C/c2ccccc2)C=CC1=O

An excerpt from above in order of length of the SMILES, ascending:
GLA inh pH 4.5 | Rango release inh | miR-21 FLuc | Rango-impB inh | SMILES
-2 | -2% | -17% | ? | COc1ccc(N=C2NC(=O)/C(=C/c3ccco3)S2)cc1
6 | 1% | -12% | ? | COc1ccc(C(C)=O)cc1COC(=O)c1cccc(N(C)C)c1
4 | 5% | -6% | 0.8% | CC1=C(C)/C(=N\OC(=O)/C=C/c2ccccc2)C=CC1=O
/ | 4% | -1% | -1.0% | O=C(NCc1cccc(Cl)c1)C1CCC(=O)N(CCN2CCOCC2)C1 (stereo not given)
/ | -4% | -13% | 0.7% | CCOc1cccc(CN(C)CC2CCCN(CCc3ccc(Cl)cc3)C2)c1O (stereo not given)
/ | 10% | / | -3.5% | CC1CC1C(=O)N(CCC1=CCCCC1)c1c(N)n(Cc2ccccc2)c(=O)[nH]c1=O (stereo not given)

Later entries
GLA inh pH 4.5 | Rango release inh | miR-21 FLuc | Rango-impB inh | SMILES
/ | -11% | 0% | -1.8% | COc1cccc(CNC(=O)COC(=O)CN(C)S(=O)(=O)c2ccc(NC(C)=O)cc2)c1
3 | -1% | -17% | -0.9% | COCCN(C(=S)Nc1ccc(OC)cc1)C(C)c1cccs1 (stereo not given)
1 | -15% | -5% | -0.5% | Cc1sc(NC(=O)CSc2nnc(COc3ccccc3)n2C)c(C#N)c1C
/ | 0% | / | 0.1% | CCOc1ccccc1C=NN1CCCCCC1
4 | -9% | 2% | -0.7% | COCCSc1ccccc1C(=O)NCc1ccc2c(c1)OCO2
-2 | -20% | -80% | 0.1% | CC(=O)Nc1ccc(N=Nc2ccccc2)cc1
/ | -4% | -7% | 3.3% | O=c1[nH]c2cccc(F)c2n2cccc12
/ | -9% | -11% | 6.4% | CCc1sc(C(=O)NCCCn2ccnc2)cc1Br
/ | -5% | / | 0.6% | COc1cccc(N=NC2C(=O)N(C(N)=S)N=C2C)c1 (stereo not given)
4 | 5% | -1% | 0.9% | CCN(CC)C(=O)Cn1nnc(-c2ccc(S(C)(=O)=O)cc2)n1
0 | -7% | -4% | 1.1% | COc1ccc(N(CC(=O)NC2CCCC2)S(=O)(=O)c2c(C)[nH]c(=O)[nH]c2=O)cc1
/ | 18% | 1% | 6.5% | O=C(CC1C(=O)NCCN1C(=O)Nc1ccccc1)Nc1cc(Cl)cc(Cl)c1 (stereo not given)
/ | -7% | / | -0.3% | CCOC(=O)N1CCN(C(=O)C(NC(=O)c2ccc(C(C)(C)C)cc2)C(C)C)CC1 (stereo not given)
0 | ? | -47% | ? | COC(=O)C1=C(Nc2ccccc2NC(=O)c2ccccc2C(=O)O)CSC1
9 | 11% | -14% | 3.4% | Cc1ccc(NC(=O)Nc2cccn(Cc3c(F)cccc3Cl)c2=O)cc1
5 | 1% | -11% | -3.7% | C=C(C)Cn1c(CCNC(=O)CC)nc2ccccc21
-21 | -2% | -12% | 0.4% | COc1ccc(-c2noc(CCCC(=O)NCCc3ccccc3)n2)cc1OC
-4 | 1% | 3% | ? | CCOP(=O)(/C(C#N)=C(\C)O)c1ccccc1 (stereo not given)
/ | -7% | -2% | -2.8% | COc1ccc(S(=O)(=O)N2CCN(c3ccccc3)CC2)cc1C(=O)N1CCCC1
-3 | / | -7% | / | Cc1ccc(C)c(C(C)NC(=O)C2C3CCC(O3)C2C(=O)O)c1 (stereo not given)
-8 | -12% | -2% | 3.8% | CCc1ccc2[nH]cc(C(=O)OCCOC)c(=O)c2c1
-6 | 6% | -39% | 3.9% | O=C(/C=C/c1ccc(Cl)cc1Cl)Nc1ccncc1
3 | -20% | -5% | 2.4% | CCOC(=O)N1CCN(C(=S)NC(=O)c2ccc(Br)cc2)CC1
4 | 23% | 8% | -0.1% | C/C(=N\Nc1cccc(Cl)c1)C1(C)N(O)C(C)(C)C(c2ccco2)=[N+]1[O-] (stereo not given)
24 | -30% | -4% | ? | CC(C)Cn1c(N)c(S(=O)(=O)c2cccs2)c2nc3ccccc3nc21

Shown with values under each structure: 3 of the compounds above
The line under a structure holds: GLA inh pH 4.5, Rango release inh, miR-21 FLuc, Rango-impB inh
C=C(C)Cn1c(CCNC(=O)CC)nc2ccccc21
 : 5, 1%, -11%, -3.7%
CC(=O)Nc1ccc(N=Nc2ccccc2)cc1
 : -2, -20%, -80%, 0.1%
COc1cccc(CNC(=O)COC(=O)CN(C)S(=O)(=O)c2ccc(NC(C)=O)cc2)c1
 : /, -11%, 0%, -1.8%

More records:
GLA inh pH 4.5 | Rango release inh | miR-21 FLuc | Rango-impB inh | SMILES
2 | ? | -4% | -0.3% | O=c1cc(-c2cccc(Cl)c2)oc2cccc(O)c12
/ | -1% | -1% | -2.4% | CCOc1ccc(S(=O)(=O)N2CCCC(C(=O)Nc3cccc(C)c3)C2)cc1 (stereo not given)
1 | 5% | -25% | -0.3% | Cc1ccc(-c2cnc(N)n2C)cc1C
/ | 3% | / | -2.9% | CCc1cccc(C)c1NC(=O)COC(=O)CNC(=O)c1cccs1

Molecules above with a CF3 group (three):
GLA inh pH 4.5 | Rango release inh | miR-21 FLuc | Rango-impB inh | SMILES
4 | 0% | -6% | 2.4% | Cc1ccc(-c2cc(C(=O)OCC(=O)Nc3ncc(C(F)(F)F)cc3Cl)c3ccccc3n2)cc1
/ | ? | -1% | ? | O=C(NCC1CCCO1)c1nn2c(C(F)(F)F)cc(-c3ccc(Br)o3)nc2c1Br (stereo not given)
-4 | 9% | -1% | -1.8% | Cc1ccc(CC(=O)N2CCN(c3cccc(C(F)(F)F)c3)CC2)cc1

Only part of the results is shown; count on the stated rates, not on these rows.
